# Source: PubChem BioAssay
# KCNQ2 enhance: potentiators of rat KCNQ2 potassium channel; O88943; CHO-K1 KCNQ2, FluxOR thallium flux fluorescence; stronger effect = higher value; B-score at 10 µM; 310,000 tested, 0.54% active; AID 2239;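 active = fluorescence ratio B-score at least 3 SD of library B-scores, with initial fluorescence B-score within 3 SD, cut at about 5.3 in these data; same plate scores as AID 2156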;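 note: B-score of peak minus minimum over baseline fluorescence ratio after K+ and Tl+ stimulus; positive B-score means potentiation of KCNQ2 with more thallium influx and brighter signal; only the inactives scoring about 0 or higher are listed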
# Target sequence (O88943 whole entry, looked up): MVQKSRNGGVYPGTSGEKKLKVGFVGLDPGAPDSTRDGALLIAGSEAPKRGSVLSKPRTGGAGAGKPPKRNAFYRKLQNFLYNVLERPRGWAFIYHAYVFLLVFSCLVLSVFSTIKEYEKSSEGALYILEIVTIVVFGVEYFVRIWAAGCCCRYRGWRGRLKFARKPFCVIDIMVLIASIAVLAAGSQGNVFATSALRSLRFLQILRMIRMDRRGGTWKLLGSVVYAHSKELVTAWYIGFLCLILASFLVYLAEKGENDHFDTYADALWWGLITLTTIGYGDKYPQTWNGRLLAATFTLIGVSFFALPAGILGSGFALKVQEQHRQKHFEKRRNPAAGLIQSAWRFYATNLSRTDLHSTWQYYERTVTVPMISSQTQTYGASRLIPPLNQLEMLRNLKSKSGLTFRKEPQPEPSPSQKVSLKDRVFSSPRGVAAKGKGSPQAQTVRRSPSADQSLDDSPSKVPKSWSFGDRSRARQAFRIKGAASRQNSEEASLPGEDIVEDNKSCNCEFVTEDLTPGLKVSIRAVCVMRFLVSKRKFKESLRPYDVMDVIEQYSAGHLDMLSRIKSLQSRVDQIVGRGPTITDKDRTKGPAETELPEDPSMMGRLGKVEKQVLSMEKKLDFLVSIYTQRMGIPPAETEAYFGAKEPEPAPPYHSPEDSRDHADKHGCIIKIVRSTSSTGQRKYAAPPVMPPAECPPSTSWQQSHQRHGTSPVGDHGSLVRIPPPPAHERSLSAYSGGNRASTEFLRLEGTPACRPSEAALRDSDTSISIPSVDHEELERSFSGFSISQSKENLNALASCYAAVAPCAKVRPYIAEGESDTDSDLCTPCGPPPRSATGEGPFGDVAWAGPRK
# KCNQ2 enhance baseline: second read-out of KCNQ2 enhance, no call of its own (marks repeat the call); B-score; compound at 10 µM; measured here: initial fluorescence intensity artifact check;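 brightness before thallium and not channel activity; 0 = typical well and far values either way flag optical interference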
# Numbers without * were called inactive; . = no result given.
SMILES,KCNQ2 enhance,KCNQ2 enhance baseline
Cc1cccc(C)c1OCCn1nc(C(=O)O)c2ccccc2c1=O,0.15,0.71
Fc1ccc(-c2ccc(/C=N/n3cnnc3)o2)cc1,0.95,-0.95
CCC1(CC)Cc2ccccc2C(=C(C#N)C#N)N1,0.52,0.07
Clc1ccc2c(NCc3ccco3)ncnc2c1,0.21,0.89
CC(NS(=O)(=O)c1ccc([N+](=O)[O-])cc1)C(c1cccs1)N1CCOCC1 (configuration not stated),0.6,-0.32
COc1ccc(NC(=O)c2cccc(S(=O)(=O)N3CCOCC3)c2)cn1,0.05,1.8
COc1ccc(/C=C2/SC(=S)NC2=O)cc1OCc1ccccc1,2,1.5
Cc1c(NC(=S)Nc2ccccc2C(F)(F)F)cccc1[N+](=O)[O-],2.1,0.06
CN1CCN(S(=O)(=O)c2ccc(NC(=O)c3cccc(F)c3)cc2)CC1,2,0.25
COC(c1ccccc1)(c1ccccc1)C(Oc1nccc(C)n1)C(=O)O (configuration not stated),0.35,-0.58
Cc1ccc(-c2ccc(OCC(=O)N3CCOCC3)cc2)cc1,1.2,0.02
CC(CN1CCN(c2ccccc2)CC1)c1ccccc1 (configuration not stated),0.69,-0.2
Cc1cccc(NC(=O)c2ccccc2[N+](=O)[O-])n1,2.1,0.07
COC(=O)C1CCN(Cc2ccc(C)cc2)CC1,2.6,-0.07
Cc1ccc(Cn2c(=O)oc3ccccc32)cc1,0.05,-0.98
O=C(N/N=C/c1cccc([N+](=O)[O-])c1)C1CC1c1ccccc1 (configuration not stated),15*,-1.7*
O=C(Nc1ccc(F)cc1F)c1ccco1,1.2,-0.02
Cc1ccc(-n2c(C)cc(=O)cc2C)c(C)c1,1.2,-0.27
Cc1ccc(C(=O)Nc2cccc(C(=O)N/N=C/c3ccc(O)cc3)c2)cc1,0.23,0.17
CC(O)c1nc2ccccc2n1CCCOc1ccccc1 (configuration not stated),1.7,-1.6
Fc1ccc(N=Cc2ccc[nH]2)cc1,0.07,-0.03
Cc1cccc(/C=N\NC(=O)c2ccc(Cl)cc2)c1O,2.5,-1.8
COc1ccc(S(=O)(=O)N(CC(=O)NCc2cccnc2)c2ccc(C)cc2)cc1OC,0.4,1.6
FC(F)(F)c1ccccc1-n1c(CN2CCCCC2)n[nH]c1=S,0.67,0
C/C(=N/NC(=O)CNC(=O)c1cccnc1)c1ccc([N+](=O)[O-])cc1,1.3,-1.4
COc1ccc(C(=O)Nc2ccc(C(=O)N3CCCC3)cc2)cc1[N+](=O)[O-],0.92,-2.7
C#CCn1cc(/C=N/NC(=O)COc2cccc3cccnc23)c2ccccc21,0.19,1
CCNC(=O)CN(c1ccc(F)cc1)S(=O)(=O)c1ccc2c(c1)OCCO2,1.5,0.52
COc1ccc(NC(=O)CSc2nc(C)cs2)c(OC)c1,1.3,0.02
CC(C)c1ccccc1NC(=S)NCc1ccncc1,0.57,-1.3
O=C(NC1CS(=O)(=O)CC1NCc1ccccc1)c1ccccc1 (configuration not stated),0.68,0.39
CC(C)[C@H](NS(=O)(=O)c1ccccc1)C(=O)OCC(=O)Nc1ccc2c(c1)OCO2,1.7,-1.5
COc1ccc(C2C3=C(CC(C)(C)CC3=O)N(CCN3CCOCC3)C3=C2C(=O)CC(C)(C)C3)cc1,1.2,-0.06
CC(Oc1ccccc1)C(=O)Nc1cccc(-c2nc3ccccc3[nH]2)c1 (configuration not stated),-5.6,.
CCCCNC(=O)CNC(=O)c1nn(-c2ccc(OC)c(Cl)c2)c(=O)c2ccccc12,0.78,-0.79
COCCNC(=O)C(C)OC(=O)C1=Cc2ccccc2OC1 (configuration not stated),0.82,0.49
Cc1c(C(=O)NN)nc2ccccn12,0.5,0.14
Cc1ccc(C)c(SCC(=O)NC(=O)NCc2ccccc2)c1,0.04,-0.01
CCc1c(C)nc(SCC(=O)N2CCCCC2C)[nH]c1=O (configuration not stated),5.5*,-0.18*
Cc1c(CCC(=O)O)c(=O)oc2cc(O)ccc12,0.62,-1.5
O=C(CCN1C(=O)/C(=C/c2ccccc2Cl)SC1=S)NNC(=O)c1cccnc1,0.91,0.75
Cc1nn(C)c(C)c1/C=C1/SC(=S)NC1=O,1.2,1.1
OC(COc1ccc2c(c1)OCO2)CN1CCCC1 (configuration not stated),1.5,1.4
CC1(c2ccccc2)NC(=O)N(CC(=O)NCc2ccc3c(c2)OCO3)C1=O (configuration not stated),0.56,-0.96
Cc1ccc(C)c(-n2c(-c3cccnc3)n[nH]c2=S)c1,0.07,-0.83
CC(=O)N1CCN(CC(=O)Nc2ccc([N+](=O)[O-])cc2Br)CC1,0.04,1.1
CC(=O)Nc1cc2c(=O)n(Cc3ccccc3)c(C)nc2cc1N1CCOCC1,0.71,-0.13
Cc1cccc(C)c1NC(=O)CS(=O)CC(=O)NCCCc1ccccc1 (configuration not stated),0.13,-0.84
CCN(CC(=O)Nc1c(F)cccc1F)C(=O)CCCNC(=O)c1ccc(Cl)cc1,0.13,0.27
COc1ccc(N(C(=O)c2ccc3c(c2)OCO3)C2C=CS(=O)(=O)C2)c(OC)c1 (configuration not stated),0.5,-0.16
CS(=O)(=O)Nc1ccc([N+](=O)[O-])cc1Oc1ccccc1,0.04,2.7
Cc1ccc(NC(=O)C[n+]2cc(-c3ccccc3)n3c2CCC3)cc1,0.41,0.48
COc1cccc(CNC(=O)[C@H](C)NC(=O)C2CCN(S(=O)(=O)c3ccccc3)CC2)c1,0.29,0.63
O=S(=O)(c1ccc(Cl)nc1)N(Cc1ccccc1)Cc1ccccc1,0.03,-0.68
Cc1ccc(Cl)cc1N1CCN(C(=O)C2CCN(S(C)(=O)=O)CC2)CC1,0.93,0.09
O=C(COc1nsnc1N1CCOCC1)Nc1ccc(Cl)cc1,2.6,-0.18
CCOC(=O)C1CCN(C(=O)c2ccc3c(c2)S(=O)(=O)c2ccccc2C3=O)CC1,0.06,0
Cc1ccc2cc(CCNC(=O)C(C)C)c(=O)[nH]c2c1,0.1,-0.21
Cc1nc2ncnn2c(C)c1CCC(=O)Nc1ccc(S(=O)(=O)N2CCCCCC2)cc1,0.51,-1.7
O=C(O)CSCC(=O)N1CCCN(c2nc3ccc(Cl)cc3s2)CC1,1.4,-0.75

# Next records:
SMILES,KCNQ2 enhance,KCNQ2 enhance baseline
CC(C)On1c(SCC(=O)N(C)C)nc2ccccc2c1=O,0.94,-1.2
NC(=O)c1ccccc1NC(=O)CSc1nc2ccccc2c(=O)[nH]1,0.09,-1.8
Cc1ccccc1NS(=O)(=O)c1nnc(NC(=O)c2ccc(Br)cc2)s1,0.58,2.2
CCCc1cc(=O)oc2cc(C)cc(OC(C)C(=O)NCCCN3CCOCC3)c12 (configuration not stated),1,0.05
CC(C)CNC(=S)NNC(=O)c1ccco1,0.63,0
Cc1cc(NC(=O)CCN2C(=O)c3ccccc3C2=O)no1,0.35,-0.81
C[C@@H]1CC[C@@]2(O[C@@H](CCO)C[C@@H](O)[C@@H]2O)O1,0.3,-1.7
CCOC(=O)c1c(NC(=O)c2ccoc2C)sc2c1CCC2,0.25,0.01
Cc1ccccc1OCCC(=O)Nc1cc(S(=O)(=O)N2CCOCC2)ccc1OC(C)C,0.1,0.59
COC(=O)N/N=C/c1ccc(-c2cc(Cl)cc(Cl)c2)o1,1.6,0.03
CCC(C)(C)n1nnnc1CN1CCC(O)(c2cccc(C(F)(F)F)c2)CC1,1.3,-1.8
CC(=O)c1ccc(NC(=O)COC(=O)c2ccccc2Sc2ccccc2C#N)cc1,0.6,0.17
O=C1C(Cl)=C(N2CCN(Cc3ccccc3)CC2)C(=O)N1c1ccccc1,0.08,-2.1
COCCCNC(=S)NC1CC2CCCC(C1)N2Cc1cccs1 (configuration not stated),0.04,-0.43
Cc1nc(CSc2nnc3scc(-c4ccccc4)n23)cs1,1.8,0.05
CC1CN(S(=O)(=O)c2ccc(Cl)c(C(F)(F)F)c2)CC(C)O1 (configuration not stated),0.4,-0.78
Cc1c(NS(=O)(=O)c2cccs2)c(=O)n(-c2ccccc2)n1C,0.37,1.6
O=S(=O)(Nc1ccc(Cl)cc1)c1ccc2c(c1)CCO2,1,-0.25
Cn1cc(-c2ccccc2C(N)=O)c(=O)c2ccccc21,1.5,-3.1
CC(C)(C)C(=O)Nc1nc(C2CCCN2S(=O)(=O)c2ccc(Cl)cc2)cs1 (configuration not stated),0.5,0.36
COc1ccc(CNC(=O)c2ccc(CS(=O)(=O)c3ccc(C)cc3)o2)cc1,0.43,0.12
Cc1cc(C)cc(Nc2c3c(nc4ncnn24)CCC3)c1,0.11,0.79
COc1cccc(C(=O)Nc2ccc(N3CCN(Cc4ccccc4)CC3)cc2)c1,1.7,-0.71
CN1C(=O)N(C)C2(c3ccccc3)N(C)C(=O)NC12c1ccccc1 (configuration not stated),1.6,-0.38

# 6 structures already listed, ordered by formula weight, highest first:
SMILES,KCNQ2 enhance,KCNQ2 enhance baseline
COc1ccc(CNC(=O)c2ccc(CS(=O)(=O)c3ccc(C)cc3)o2)cc1,0.43,0.12
O=C1C(Cl)=C(N2CCN(Cc3ccccc3)CC2)C(=O)N1c1ccccc1,0.08,-2.1
CC1CN(S(=O)(=O)c2ccc(Cl)c(C(F)(F)F)c2)CC(C)O1 (configuration not stated),0.4,-0.78
Cc1nc(CSc2nnc3scc(-c4ccccc4)n23)cs1,1.8,0.05
CN1C(=O)N(C)C2(c3ccccc3)N(C)C(=O)NC12c1ccccc1 (configuration not stated),1.6,-0.38
Cn1cc(-c2ccccc2C(N)=O)c(=O)c2ccccc21,1.5,-3.1

# The listing continues.
SMILES,KCNQ2 enhance,KCNQ2 enhance baseline
CC(=O)Nc1ccc(-c2csc(NCCc3ccccc3)n2)cc1,0.49,0.03
COc1ccc(C(=O)O)cc1S(=O)(=O)NCc1ccccn1,1.1,-0.01
COc1ccc(-n2c(C)nc3c(cnn3-c3ccc(C)cc3)c2=O)cc1,0.68,1.5
Cc1ccc([N+](=O)[O-])cc1N1C(=O)CS/C1=N\NC(=O)c1cccnc1,0.08,-0.39
Cc1ccc2c(c1)c(-c1ccccc1)nc1nnnn12,0.6,-0.05
COc1ccc(C2SCC(=O)N2c2c(C)n(C)n(-c3ccccc3)c2=O)cc1OC (configuration not stated),1.9,-1.8
Cc1[nH]n(-c2ccccc2)c(=O)c1/C=N/NC(=O)c1cccc(F)c1,0.17,1.3
O=C(CCCN1C(=O)/C(=C\c2ccccc2)SC1=S)Nc1cccc(C(=O)O)c1,1.4,-1.4
CCc1ccccc1NC(=O)[C@@H]1CCC(=O)N1C1OC(=O)c2c1ccc(OC)c2OC (some centres not stated),7.2*,-1.5*
CCN(CC)C(=O)CC(c1ccc2c(c1)OCO2)c1c(O)cc(OC)cc1OC (configuration not stated),0.91,-0.05
COc1cc(/C=N/NC(=O)c2cc3ccccc3[nH]2)ccc1O,0.98,-1.5
COC(=O)N=Nc1c(O)n(Cc2ccccc2)c2ccccc12,1.2,0
O=C(Cc1csc(Nc2nc(=S)[nH]c3ccccc23)n1)N1CCN(c2cccc(Cl)c2)CC1,0.38,-0.97
O=C(CS(=O)CC(=O)N(CC(=O)NC1CCCC1)C1CCCC1)Nc1ccc(F)cc1 (configuration not stated),0.98,0.15
O=C(NC(=S)Nc1nc(-c2ccc(Br)cc2)cs1)c1ccco1,5.1,-0.21
Cn1ncc(Br)c1C(=O)O,0.78,0.13
COc1ccccc1NS(=O)(=O)c1cc(NC(=O)c2cc[n+]([O-])cc2)ccc1N1CCCC1,0.04,-1.4
O=C(Cc1ccc(NC2=NC3CS(=O)(=O)CC3S2)cc1)NCc1ccccc1 (configuration not stated),0.5,-0.02
CCOC(=O)c1[nH]cnc1C(=O)Nc1ccc(Cl)cc1,0.13,-0.8
COc1cc(NC(=O)c2cccnc2SC)cc(OC)c1,0.2,-0.37
CN(CCO)c1ccc(-c2nn(C)c(=O)c3ccccc23)cc1[N+](=O)[O-],0.1,-1.3
Cc1cccc(NC(=O)C2CCN(S(=O)(=O)c3ccc4c(c3)C(C)(C)C(=O)N4C)CC2)c1C,0.3,1.2
COc1ccc(NC(=O)Cn2nc(C)c3ccccc3c2=O)cc1,0.05,-2.2
CCCCC(=O)Nc1ccccc1Oc1ccccc1,9*,0.3*

# Random excerpt: five entries already listed, in no set order.
SMILES,KCNQ2 enhance,KCNQ2 enhance baseline
CN(CCO)c1ccc(-c2nn(C)c(=O)c3ccccc23)cc1[N+](=O)[O-],0.1,-1.3
CCCCC(=O)Nc1ccccc1Oc1ccccc1,9*,0.3*
CCOC(=O)c1[nH]cnc1C(=O)Nc1ccc(Cl)cc1,0.13,-0.8
O=C(Cc1ccc(NC2=NC3CS(=O)(=O)CC3S2)cc1)NCc1ccccc1 (configuration not stated),0.5,-0.02
Cc1cccc(NC(=O)C2CCN(S(=O)(=O)c3ccc4c(c3)C(C)(C)C(=O)N4C)CC2)c1C,0.3,1.2

# Additional entries.
SMILES,KCNQ2 enhance,KCNQ2 enhance baseline
Cc1ccc(S(=O)(=O)N2CCC(C(=O)N3CCN(c4ccccn4)CC3)CC2)cc1,2.3,0.12
Clc1ccc(-n2ncc3c(N4CCCCCC4)ncnc32)cc1,0.12,-0.88
CCc1nnc(N2C(=O)c3ccc(Oc4ccc([N+](=O)[O-])cc4)cc3C2=O)s1,1.5,-0.67
COc1ccc(CNC(=O)c2cccc(N3CCCC3=O)c2)cc1,1.1,-0.54
CCOCCCNC(=O)CN1C(=O)CSc2ccc(S(=O)(=O)N3CCOCC3)cc21,0.2,2.6
CCC(Oc1ccc(Cl)cc1)C(=O)N1CC(=O)Nc2ccccc21 (configuration not stated),0.26,-0.01
S=c1[nH]c2ccc(Cl)cc2[nH]1,1.2,0.01
O=C(Nc1ccccc1F)c1ccccc1C(=O)Nc1ccccc1F,0.35,-0.29
CS(=O)(=O)Nc1ccc(C(=O)Nc2ccc(S(=O)(=O)N3CCCCC3)cc2)cc1,0.94,0.01
O=C(Nc1ncc2c(n1)CC(c1ccco1)CC2=O)c1ccco1 (configuration not stated),0.96,-0.25
O=C(O)c1ccccc1-c1ccccc1C(=O)Nc1ccccc1-c1ccccc1,0.42,-0.99
CCc1ccnc(NS(=O)(=O)c2ccc3c(c2)CCO3)c1,0.89,-2.6

# An excerpt; the hit share may differ from the screen's.
